INS promoter inh – TRM-6 insulin promoter activity inhibition; AID 1273; TRM-6 cells (human fetal islet line), insulin promoter-eGFP reporter, imaging; reporter expression induced with tamoxifen; actives 0.9% (n = 130,000); inhibition, % at 2 µM;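 active means inhibition above the mean plus 3 SD, with well images judged a real hit on visual review, cut at about 60% in these data, passing the limit was not always enough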
RGS16-Gao HTS – modulates binding between human RGS16 and Galphao; actives 0.38% (n = 220,000); bead-based flow cytometry RGS16-Galphao binding, fluorescence; actives lie on both sides; binding response (% of control), % at 10 µM; AID 1441; O15492+P09471;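 active means below 25% or above 175%, edge rows of some plates excepted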;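 further: Galphao activated by GDP with aluminum fluoride before binding; 100% = wells without compound and 0% = beads without RGS; some results beyond the cut were filed as inactive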
Target sequence (O15492 whole entry, looked up): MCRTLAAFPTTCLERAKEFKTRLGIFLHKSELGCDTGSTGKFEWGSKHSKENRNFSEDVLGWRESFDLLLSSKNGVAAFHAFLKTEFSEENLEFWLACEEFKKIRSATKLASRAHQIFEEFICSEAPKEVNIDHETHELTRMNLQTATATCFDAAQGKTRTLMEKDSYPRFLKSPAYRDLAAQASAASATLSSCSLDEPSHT
Target sequence (P09471 whole entry, looked up): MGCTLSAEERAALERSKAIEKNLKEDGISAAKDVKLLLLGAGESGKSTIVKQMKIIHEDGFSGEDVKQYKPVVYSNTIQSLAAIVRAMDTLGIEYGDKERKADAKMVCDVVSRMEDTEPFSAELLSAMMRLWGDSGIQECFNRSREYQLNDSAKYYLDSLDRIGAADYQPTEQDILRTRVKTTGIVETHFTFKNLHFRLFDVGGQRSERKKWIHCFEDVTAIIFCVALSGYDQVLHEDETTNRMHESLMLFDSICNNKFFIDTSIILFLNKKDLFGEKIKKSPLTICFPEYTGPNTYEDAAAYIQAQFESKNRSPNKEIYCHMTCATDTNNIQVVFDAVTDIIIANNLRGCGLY
PKD1 inh – PKD1 (human) kinase inhibition | Q15139 | PKD1 kinase fluorescence polarization assay | inhibition, %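 (about 10 µM by stock and volumes)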 | actives 0.056% (n = 200,000);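 active means inhibition of 50% or more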;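 further: controls were vehicle for no effect and a reference inhibitor for full effect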
GALR2 agonist – GALR2 (human) receptor agonism; O43603; actives 0.48% (n = 140,000); GALR2-expressing cells, agonist activation read-out; activation, %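 (tested at 5 µM)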;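 active means above mean plus 3 SD of all compounds, about 5% in these data, not always enough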;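 further: 0% = vehicle buffer wells and 100% = reference agonist at full effect; tested in CHO reporter cells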
Target sequence (O43603 whole entry, looked up): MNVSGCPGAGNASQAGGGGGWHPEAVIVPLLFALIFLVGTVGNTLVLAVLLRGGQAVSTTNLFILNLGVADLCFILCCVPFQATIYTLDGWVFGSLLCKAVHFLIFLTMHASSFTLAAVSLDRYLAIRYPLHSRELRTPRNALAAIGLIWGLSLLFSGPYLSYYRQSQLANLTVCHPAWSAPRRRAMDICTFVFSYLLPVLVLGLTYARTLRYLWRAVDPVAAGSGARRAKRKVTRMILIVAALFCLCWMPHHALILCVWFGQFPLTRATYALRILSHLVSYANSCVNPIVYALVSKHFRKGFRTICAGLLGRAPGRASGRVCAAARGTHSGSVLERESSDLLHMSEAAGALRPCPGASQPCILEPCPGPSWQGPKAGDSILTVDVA
HSV replic up – increases HSV replication in cells. HSV replication augmentation in cells, fold increase. maximum fold increase. actives 0.005% (n = 220,000);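 active means peak rise of 1.5-fold or more in the series; tested in PC3 cells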;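 further: first round at 10 µM; read as green reporter fluorescence; hits show the peak of a series up to 25 µM; 1 = signal of infected wells without compound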
INS promoter inh cell count – second read-out of INS promoter inh, no call of its own (marks repeat the call); normalized cell count, %; measured here: cell count, toxicity; reference of the scale not given here;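 cells exposed to compound for 48 h; stained nuclei by imaging scaled within each plate; lower means fewer cells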
HSV replic up primary fold – also measured in HSV replic up; calls as there; fold increase; compound at 10 µM; measured here: primary screen fold increase 10 uM; tested in PC3 cells;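 GFP signal in the first replicate; 1 = infected wells without compound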
* marks the source's active call; other numbers are inactive results; i = inactive; x = no result given.

mol | INS promoter inh | INS promoter inh cell count | RGS16-Gao HTS | PKD1 inh | GALR2 agonist | HSV replic up | HSV replic up primary fold
O=C(C1Cc2ccccc2CN1S(=O)(=O)c1cccs1)N1CCCCC1 (centres undefined) | -15 | 65 | 102 | -2 | -1.4 | i | 0.82
COC(=O)c1cc2c(C)c(C)c3ccccn3c-2c1C(=O)OC | -46 | 60 | 98 | 7 | -1.3 | i | 1.1
COc1ccc(/C=C2\SC(=O)N(CC(=O)NNC(=O)c3ccccc3O)C2=O)cc1OC | x | x | 99 | -3 | 0.2 | i | 0.89
O=C1COc2ccc(C(=O)CSc3nnc(-c4cccs4)n3Cc3ccccc3)cc2N1 | x | x | 101 | -1 | 0.0 | i | 0.99
C(=C\c1nc(-c2ccccc2)no1)/c1ccccc1 | x | x | 99 | 6 | 0.2 | i | 1.1
CCOC(=O)c1ccc(NC(=O)CN2C(=O)CSC(C)C2=O)cc1 (centres undefined) | 4 | 128 | 109 | -3 | 0.5 | i | 1.1
COCCCNc1ncnc2c1sc1nc(-c3ccco3)c3c(c12)CC(C)(C)OC3 | x | x | 98 | x | x | i | 0.83
O=C(C[n+]1cc(-c2ccccc2)n2c1CCC2)N1c2ccccc2Sc2ccccc21 | x | x | 104 | -7 | 0.2 | i | 0.77
COCCN(C(=O)Cn1nnc2ccccc21)C(C(=O)NC1CCCC1)c1ccc(OC)cc1OC (centres undefined) | 19 | 92 | 88 | 1 | -1.1 | i | 1
C/C(Cl)=C/CSc1nc2c(c(=O)[nH]c(=O)n2C)n1C(C)C | 14 | 135 | 102 | 4 | 1.6 | i | 1
COc1ccc(CCNC(=O)C23CN(Cc4ccccc4)CC2C(c2cccc([N+](=O)[O-])c2)=NO3)cc1 (centres undefined) | 0 | 103 | 107 | -6 | -0.7 | i | 0.97
Cc1onc(-c2c(Cl)cccc2Cl)c1C(=O)Nc1c(C)n(C)n(-c2ccccc2)c1=O | 6 | 89 | 102 | -7 | -1.0 | i | 0.97
Cn1c(O)c(N=NC(=N)N)c2ccccc21 | x | x | 98 | x | x | i | 0.94
CC1=Nn2c(nnc2-c2ccccc2Cl)SC1 | 88* | 83* | 104 | -5 | -0.1 | i | 0.79
CCOC(=O)c1c(NC(=O)CSc2nc3nc(C)cc(C)n3n2)sc(CC)c1C | 49 | 89 | 103 | -8 | -1.0 | i | 0.87
CCOC(=O)C1(CC2CCCCO2)CCN(Cc2cccnc2)CC1 (centres undefined) | x | x | 99 | 1 | x | i | 0.95
NS(=O)(=O)c1ccc(NC(=O)NC2CCCCC2)cc1 | 20 | 117 | 103 | 8 | -0.2 | x | x
COc1cc2c(C#N)c(N3CCc4ccccc4C3)nc(N)c2c(N)n1 | x | x | 96 | -12 | -1.4 | i | 0.93
COCCn1c(N/N=C(C)/C=C/c2ccccc2)nc2c1c(=O)[nH]c(=O)n2C | x | x | 103 | 3 | x | i | 0.91
CCOC(=O)C1(Cc2cccc(OC)c2)CCN(C2CCOCC2)CC1 | -7 | 57 | 112 | 3 | x | i | 1
C#CCNC(=O)C1=C[C@H](c2coc3ccccc3c2=O)C[C@H](OCc2ccc(CO)cc2)O1 | x | x | 111 | -5 | x | i | 1.1
Cn1c(SCCOc2cccc(Cl)c2)nnc1-c1ccncc1 | x | x | 102 | -7 | -0.4 | i | 0.95
COc1cc(C(=O)N2CCCc3ccccc32)cc(OC)c1OC | 14 | 103 | 100 | -3 | -2.0 | i | 0.9
C=CCSc1nnc(-c2cc(C(C)(C)C)nn2Cc2ccc(F)cc2)n1C | x | x | 98 | x | x | i | 0.91
O=C1CCc2cc(S(=O)(=O)NC(Cc3ccccc3)C(=O)NC3CCCC3)ccc2N1 (centres undefined) | x | x | 96 | 12 | -0.3 | i | 1
CC(C)CC(NC(=O)C1CCC(C)CC1)C(=O)Nc1ccccn1 (centres undefined) | -51 | 70 | 97 | -2 | -1.5 | i | 1
CN(C)c1ccc(CN2CCCCCC2)cc1 | 25 | 120 | 105 | 0 | -1.7 | i | 1
O=c1[nH]c(SCc2ccccc2)nc2ccsc12 | x | x | 97 | 0 | x | i | 1
C=C(C)Cn1c(N2CC(C)CC(C)C2)nc2c1c(=O)[nH]c(=O)n2C (centres undefined) | x | x | 104 | x | x | i | 0.92
CC(C)(C)c1ccc(C(=O)NCC(=O)O)cc1 | x | x | 87 | -6 | x | i | 0.95
COc1ccc(-c2nnn(CCc3nn[nH]n3)n2)cc1OC | -20 | 114 | 91 | -7 | -0.5 | i | 0.88
CSc1ncccc1C(=O)OCC(=O)NC(C)C | x | x | 100 | 1 | x | i | 1
Cc1c(NC(=O)CS(=O)(=O)c2ccccc2)c(=O)n(-c2ccccc2)n1C | x | x | 102 | 3 | x | i | 0.88
Cc1cc2ncn(CCOc3ccccc3C#N)c2cc1C | 37 | 87 | 107 | -1 | 0.2 | i | 0.89
O=C(CN1CCOc2ccccc21)NCc1ccccc1 | 20 | 111 | 85 | -3 | -0.1 | x | x
COC(=O)C(C)NC(=O)c1ccc(C(C)(C)C)cc1 (centres undefined) | -56 | 136 | 99 | -4 | -0.4 | i | 0.97
COC(=O)Nc1ccc2ncn(C)c(=O)c2c1 | x | x | 103 | -1 | -2.9 | i | 0.88
COc1cccc(C(=O)N(CN2CCCC2=O)c2cccc(Cl)c2)c1 | x | x | 98 | -14 | -3.3 | i | 0.93
COc1cc(S(=O)(=O)NC2CCCC2)ccc1F | 25 | 129 | 105 | -2 | -4.0 | i | 0.94
Cc1ccc(/C([O-])=C(/C(=S)NCc2ccco2)[n+]2ccccc2)cc1 | x | x | 91 | 2 | -0.4 | i | 1
Cc1ccc(CNC(=O)CCC2CCCN(Cc3cc4ccccc4o3)C2)o1 (centres undefined) | x | x | 97 | x | x | i | 1
COCCN1Cc2cccc(C(=O)Nc3ccc(C)cc3)c2C1=O | x | x | 102 | 2 | x | i | 1.1
Cc1ccc(NC(=O)N2CCCC(C(=O)O)C2)cc1 (centres undefined) | x | x | 97 | x | x | i | 0.8
CC(C)(C)c1ccc(C(=O)NCc2ccc(Cl)cc2)cc1 | x | x | 102 | 2 | -0.8 | i | 0.84
CN(C)c1ccc(CNc2ncc(Br)cc2Br)cc1 | 0 | 60 | 103 | 3 | -0.5 | i | 0.98
COc1ccc(CCN2C(=O)CC(N3CCOCC3)C2=O)cc1OC (centres undefined) | 24 | 156 | 93 | 0 | -2.1 | i | 0.94
O=C(CCC1CCCC1)N1CCN(C(=O)COc2ccccc2)CC1 | x | x | 100 | -7 | 0.1 | i | 1
O=C(CSc1nc2ccccc2n1Cc1ccccc1Cl)N/N=C/c1ccccc1C(=O)O | x | x | 101 | x | x | i | 1.1
NC(=O)c1ccc(NC(=O)COC(=O)CC(NC(=O)c2ccccc2Cl)c2ccccc2)cc1 (centres undefined) | -51 | 100 | 106 | -4 | -1.9 | i | 1
COc1ccc(-c2ccc(C#N)c(SCC(=O)NC3CC3)n2)cc1OC | x | x | 100 | x | x | i | 0.9
CCOC(=O)C(=O)N1CCN(c2ccccc2OC)CC1 | 42 | 78 | 104 | 1 | x | i | 1.1
COc1ccc(OCC(=O)N/N=C(\C)c2ccc(-n3ccnc3)cc2)cc1 | x | x | 105 | 0 | -0.4 | i | 0.93
NC(=O)SCC(=O)Nc1ccc(Cl)cc1 | -31 | 97 | 97 | -8 | -1.5 | i | 0.74
Oc1c(Br)cc(Br)cc1C=Nc1ccc2c(c1)OCCO2 | x | x | 101 | -4 | x | i | 1.2
COc1ccc(CCNC(=O)CSc2nnc(-c3ccc(F)cc3)o2)cc1OC | x | x | 93 | 10 | -0.4 | i | 1.1
CC1(C)Cc2ccccc2-c2nnc(SCC(=O)Nc3nc4ccccc4s3)n21 | -19 | 133 | 100 | 10 | 1.1 | i | 0.72
Cc1nc2sc3c(c2c(=O)[nH]1)CCCCC3 | x | x | 95 | x | x | i | 1
COc1ccc(C)cc1S(=O)(=O)N1c2ccccc2CC1C (centres undefined) | -60 | 109 | 109 | 2 | -1.4 | i | 0.73
COC(=O)CSc1nc(N)c(C#N)c(C(C)C)c1C#N | x | x | 99 | -2 | 0.0 | i | 0.84
CC(C)(C)c1ccc(C(=O)CC(Sc2ccc(Cl)cc2)C(=O)O)cc1 (centres undefined) | x | x | 99 | 4 | x | i | 0.91

In another format: results already given.
The line under a structure holds: INS promoter inh	INS promoter inh cell count	RGS16-Gao HTS	PKD1 inh	GALR2 agonist	HSV replic up	HSV replic up primary fold
> COc1ccc(-c2nnn(CCc3nn[nH]n3)n2)cc1OC
  -20	114	91	-7	-0.5	i	0.88
> COC(=O)Nc1ccc2ncn(C)c(=O)c2c1
  x	x	103	-1	-2.9	i	0.88
> O=C(CCC1CCCC1)N1CCN(C(=O)COc2ccccc2)CC1
  x	x	100	-7	0.1	i	1
> CCOC(=O)C(=O)N1CCN(c2ccccc2OC)CC1
  42	78	104	1	x	i	1.1

Other results follow.
mol | INS promoter inh | INS promoter inh cell count | RGS16-Gao HTS | PKD1 inh | GALR2 agonist | HSV replic up | HSV replic up primary fold
COc1ccc(C2CC(C(F)(F)F)n3nc(C(N)=O)c(Cl)c3N2)cc1OC (centres undefined) | x | x | 106 | -8 | 0.6 | i | 0.98
O=C(COC(=O)[C@@H]1CCCN1S(=O)(=O)c1ccc(Cl)cc1)NC12CC3CC(CC(C3)C1)C2 | x | x | 105 | -2 | 0.5 | i | 1.1
Cc1noc(C)c1-c1nc(CS(=O)(=O)c2ccc(Cl)cc2)no1 | x | x | 100 | x | x | i | 0.95
Cc1ccc(C2(C)NC(=O)N(CC(=O)Nc3cccnc3Cl)C2=O)cc1 (centres undefined) | -4 | 51 | 109 | -6 | x | i | 1.1
CCOC(=O)CN(Cc1ccc(OC)c(OC)c1)S(=O)(=O)c1ccc(OC)cc1 | 42 | 89 | 105 | -3 | -2.3 | i | 0.97
C[N+]1=C2CCCCCN2C(O)(c2ccccc2)C1 (centres undefined) | x | x | 106 | -8 | -0.1 | i | 1.1
Cc1c(F)cccc1NS(=O)(=O)c1ccccc1C#N | 50 | 123 | 102 | -8 | -1.0 | i | 1.1
CC(C)CC(NC(=O)C(Cc1ccc(OCc2ccccc2)cc1)NC(=O)OC(C)(C)C)C(N)=O (centres undefined) | -58 | 126 | 98 | -8 | -0.4 | i | 1.1
CCOC(=O)C(C(=O)Nc1cccc(C)n1)C1CCCCC1 (centres undefined) | x | x | 99 | 1 | -5.4 | i | 0.92
Cc1cc(C)nc(N/C(=N/S(=O)(=O)Cc2ccccc2)Nc2ccccc2)n1 | -31 | 116 | 95 | 1 | -1.5 | i | 0.82
CN(C)c1ccc(/C=N/NC(=O)c2ccc(Cl)cc2)cc1 | -196 | 109 | 95 | -8 | -2.2 | i | 0.94
COc1ccc(N2C3=[N+](CC2(C)O)c2ccccc2CC3)cc1 (centres undefined) | 36 | 116 | 115 | -3 | 0.3 | i | 0.76
c1ccc(CSc2nnc(Cc3ccccc3)o2)cc1 | x | x | 97 | -4 | x | i | 0.97
CC1(C)CC(=O)C=C(Nc2ccccn2)C1 | 32 | 119 | 99 | -1 | -2.2 | i | 1
COC(=O)C(Cc1ccc(OC(=O)c2ccccc2C)cc1)N1Cc2ccccc2C1=O (centres undefined) | 39 | 160 | 106 | 2 | -2.3 | i | 1.1
Cc1ccc(Cn2nnc3c(=O)n(CC(=O)c4ccccc4)cnc32)cc1 | x | x | 121 | -5 | -4.1 | i | 0.91
C=C(C)C1CC=C(C)/C(=N/NC(=O)CCCNc2cccc(C)c2)C1 (centres undefined) | x | x | 107 | -5 | x | i | 0.87
Cc1cc(CN(C)C(=O)CC2C(=O)NCCN2Cc2c(F)cccc2Cl)n[nH]1 (centres undefined) | x | x | 101 | 3 | x | i | 1
O=C(Nc1ccccc1)c1cccc(S(=O)(=O)Nc2ccccn2)c1 | -18 | 134 | 97 | 1 | -0.6 | i | 0.94
Cc1nc2c(C(=O)Nc3ccc(N4CCCC(O)C4)cc3)snc2c(=O)[nH]1 (centres undefined) | x | x | 104 | x | x | i | 0.94
COc1cc(OC)cc(-c2nc3ccccc3c(=O)n2NC(=O)c2cccnc2Cl)c1 | 6 | 107 | 92 | -12 | -1.0 | i | 0.99
O=C(O)c1cc2c(s1)-c1ccccc1OC2 | x | x | 101 | -1 | -0.9 | i | 0.82
CC1(C)CC(=O)C(Sc2ccccc2C(=O)O)=C(O)C1 | x | x | 108 | -2 | -0.1 | i | 1
CC(=O)Nc1sc(N/N=C\c2cccc(Cl)c2)nc1-c1cccs1 | -41 | 146 | 95 | 0 | -2.7 | i | 0.99
COc1ccc2nc(C)c(C(N)=O)cc2c1 | x | x | 103 | -1 | x | i | 1
O=C(CNCc1ccc(Cl)cc1)Nc1cccc(C(=O)O)c1 | x | x | 47 | -3 | x | x | x
O=C(Nc1cccc(F)c1)N(Cc1ccc(Cl)cc1)CC(O)C(F)(F)F (centres undefined) | -23 | 84 | 104 | -8 | -0.2 | i | 0.91
